PREPL inh: inhibitors of human prolyl oligopeptidase-like enzyme PREPL; recombinant PREPL, fluorescence polarization activity-based probe; inhibition, % at 5.96 µM; hit rate 0.68% among 320,000; Q4J6C6; AID 2751; in the data active = inhibition above about 43%;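 also: 0% = enzyme with DMSO and 100% = wells lacking enzyme; many of its hits are not listed in these tables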
ZTA DNA inh: blocks Epstein-Barr virus ZTA, an EBNA-1 counter-screen. hit rate 0.15% among 320,000. AID 2234. P03206. inhibition, % at 11 µM. ZTA-DNA binding, fluorescence polarization; in the data active = inhibition above about 33%
Target sequence (P03206 whole entry, looked up): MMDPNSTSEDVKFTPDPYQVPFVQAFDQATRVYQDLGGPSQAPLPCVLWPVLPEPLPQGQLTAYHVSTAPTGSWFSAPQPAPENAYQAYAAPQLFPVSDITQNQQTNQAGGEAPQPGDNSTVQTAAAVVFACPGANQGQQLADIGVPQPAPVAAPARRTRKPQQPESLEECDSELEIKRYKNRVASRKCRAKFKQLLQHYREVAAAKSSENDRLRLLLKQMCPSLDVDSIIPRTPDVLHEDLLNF
LYPLA1 inh: LYPLA1 (human) inhibition in PME1 counter-screen; recombinant LYPLA1, FP-Rh probe fluorescence polarization; inhibition, % at 5.9 µM; O75608; hit rate 0.16% among 320,000;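 active = inhibition above the mean of all tested compounds plus 3 SD, set per campaign, cut at about 14% in these data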;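 also: inhibitors block serine hydrolase probe labeling of LYPLA1 so polarization falls; 0% = enzyme with DMSO and 100% = wells lacking LYPLA1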
Target sequence (O75608 whole entry, looked up): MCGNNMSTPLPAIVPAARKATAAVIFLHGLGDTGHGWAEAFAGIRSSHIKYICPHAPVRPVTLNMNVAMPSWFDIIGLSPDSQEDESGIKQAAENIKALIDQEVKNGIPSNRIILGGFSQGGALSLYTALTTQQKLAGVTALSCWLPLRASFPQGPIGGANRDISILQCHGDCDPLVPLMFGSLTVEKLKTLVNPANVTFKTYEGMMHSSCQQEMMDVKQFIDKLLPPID
PAFAH1B3 inh: inhibitors of human PAFAH1B3 | Q15102 | recombinant PAFAH1B3, FP-rhodamine probe, fluorescence polarization | inhibition, % at 3.39 µM | hit rate 0.28% among 340,000;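 active = inhibition above the screen-wide average of all tested compounds plus 3 SD, cut at about 25% in these data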;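 also: 0% = enzyme with DMSO only and 100% = wells lacking PAFAH1B3 protein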
Target sequence (Q15102 whole entry, looked up): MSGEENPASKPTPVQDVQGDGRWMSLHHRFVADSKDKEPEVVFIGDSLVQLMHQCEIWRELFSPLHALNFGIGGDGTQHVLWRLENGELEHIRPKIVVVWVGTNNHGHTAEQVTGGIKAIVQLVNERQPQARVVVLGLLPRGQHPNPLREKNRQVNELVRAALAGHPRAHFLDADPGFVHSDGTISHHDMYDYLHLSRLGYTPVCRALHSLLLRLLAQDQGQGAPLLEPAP
PAFAH2 FP inh: inhibitors of human PAFAH2. Q99487. recombinant PAFAH2, FP-rhodamine activity probe, fluorescence polarization. inhibition, % at 3.39 µM. hit rate 0.99% among 340,000;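 active = inhibition above the mean over all tested compounds plus 3 SD, cut at about 30% in these data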;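 also: inhibitors block probe labeling of enzyme so polarization drops; 0% = enzyme with DMSO and 100% = wells lacking PAFAH2 protein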
EBNA-1 inh: blocks EBNA-1 binding to DNA | EBNA-1 DNA binding, fluorescence polarization | inhibition, % at 14.8 µM | hit rate 0.34% among 300,000 | AID 1950; in the data active = inhibition above about 28%
LYPLA2 inh: counter-screen for PME1 inhibitors: inhibitors of human LYPLA2; hit rate 0.38% among 320,000; recombinant LYPLA2, FP-Rh probe fluorescence polarization; inhibition, % at 5.9 µM;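 active = inhibition above the screen-wide mean plus 3 SD, limit set per campaign, cut at about 26% in these data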;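 also: 0% = LYPLA2 with DMSO and 100% = wells lacking LYPLA2 enzyme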
Target sequence (O95372 whole entry, looked up): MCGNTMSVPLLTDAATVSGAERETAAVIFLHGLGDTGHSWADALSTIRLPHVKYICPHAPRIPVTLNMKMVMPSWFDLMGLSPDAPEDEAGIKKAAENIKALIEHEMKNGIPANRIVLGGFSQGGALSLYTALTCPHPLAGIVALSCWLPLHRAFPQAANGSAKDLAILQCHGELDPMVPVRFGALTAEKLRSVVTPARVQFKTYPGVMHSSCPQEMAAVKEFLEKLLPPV
pPAFAH inh: pPAFAH (human) enzyme inhibition. recombinant pPAFAH, FP-rhodamine probe fluorescence polarization. inhibition, % at 3.39 µM. hit rate 1.5% among 330,000. AID 463082;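 active = inhibition above the mean inhibition across the screen plus 3 SD, cut at about 25% in these data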;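 also: inhibitors block binding of the rhodamine activity-based probe so polarization drops; 0% = enzyme with DMSO and 100% = wells lacking pPAFAH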
* marks the source's active call; other numbers are inactive results; nt = no result given. A portion of the library. The share of hits here may be higher or lower than overall.

item	Molecule	PREPL inh	ZTA DNA inh	LYPLA1 inh	PAFAH1B3 inh	PAFAH2 FP inh	EBNA-1 inh	LYPLA2 inh	pPAFAH inh
1	O=S(=O)(NCc1ccc(F)cc1)c1ccc(Br)cc1Br	-11	-2	5	-2	-4	nt	-5	-3
2	O=C(NCC1(c2ccccc2)CCCC1)c1ccc(Br)o1	-6	4	-1	7	-2	-1	-3	-1
3	CCC12CC3CC(C1)CC(C(=O)NNC(N)=O)(C3)C2	2	3	1	8	2	6	3	1
4	CCC(C)(c1ccc(C=O)s1)c1ccc(C=O)s1	19	-5	1	5	2	-14	6	4
5	CC(=O)N1CCOc2ccc(S(=O)(=O)NC(C)c3ccccc3)cc21 (configuration not stated)	2	8	-4	2	5	11	-1	4
6	COc1ccc(S(=O)(=O)Nc2ccc(S(=O)(=O)Nc3nccs3)cc2)cc1	16	-11	-2	2	-7	5	3	0
7	Cc1ccccc1NC(=O)c1cc(S(=O)(=O)c2ccccc2)ccc1Cl	2	2	-1	-1	-1	-4	-2	2
8	CCOc1ccc2c(c1)OC(c1ccc(C)cc1)(C(F)(F)F)NC2=O (configuration not stated)	-27	6	-4	10	7	2	2	6
9	COc1ccc(COc2ccc(C3C(S(=O)(=O)c4ccccc4)CON3C)cc2OC)cc1 (configuration not stated)	18	13	0	9	2	-5	4	3
10	Cc1ccnc(NS(=O)(=O)c2ccc(NC(=O)C34CC5CC(C)(CC(C)(C5)C3)C4)cc2)n1	-2	1	7	-2	-4	12	9	-2
11	CCc1noc(C)c1C(=O)N1CCN(S(=O)(=O)c2ccc(Br)cc2)CC1	-1	10	5	5	-11	-8	3	-1
12	O=C1CC(SCCc2nc3ccccc3[nH]2)C(=O)N1c1ccc(F)c(Cl)c1 (configuration not stated)	19	12	-4	4	7	0	-6	0
13	O=S(=O)(NCCC1=CCCCC1)c1ccc(F)cc1	-10	-7	1	5	1	3	3	12
14	Cc1ccsc1C(=O)OCC(=O)NCc1ccco1	-8	2	-3	1	16	-2	0	7
15	O=C(CCNS(=O)(=O)c1ccccc1)NCCSc1ccc(Br)cc1	-8	14	-1	-1	10	nt	1	7
16	O=C(NCCc1ccc(Cl)cc1)c1ccc2[nH]c(=O)c(=O)[nH]c2c1	17	11	-7	5	3	6	-7	9
17	O=[N+]([O-])c1cccc(/C=N/n2c(-c3cccnc3)n[nH]c2=S)c1	13	-21	3	-1	-3	-16	6	6
18	COc1ccc(Nc2nc(-c3ccc(OC)cc3)c(CCC(=O)O)s2)cc1	3	-4	0	0	5	5	-3	9
19	CCC(O)CNC(=O)CCc1nnc(C2(c3ccc(Cl)cc3)CCC2)o1 (configuration not stated)	-9	9	-3	3	1	10	-7	1
20	COCCn1c(NC(=S)NC(=O)C23CC4CC(CC(C4)C2)C3)cc(=O)[nH]c1=O	-3	11	-2	1	5	-4	-1	2
21	Cc1ccc(S(=O)(=O)N2[C@@H](c3ccccc3F)C(C(=O)O)=CC[C@H]2c2ccc(Cl)c(Cl)c2)cc1	0	12	-5	-5	-1	14	-4	7
22	COc1cc(C(=O)NCC2(c3ccccc3)CCCC2)cc(OC)c1OC	-17	-14	-2	10	5	2	4	4
23	O=C(Cc1c(Cl)cccc1Cl)NCCc1ccc(Cl)cc1	-7	10	1	9	-3	11	2	-2
24	Cc1cccc2nc(CSc3ccc(Cl)cc3)cn12	-1	0	-3	2	3	-13	1	0
25	O=C(OCC(=O)N(c1ccccc1)C1CCCCC1)c1ccc(CO)cc1	-4	-14	3	7	5	nt	11	1
26	CC(NC(=O)CSCc1ccc(Br)cc1)c1ccccc1 (configuration not stated)	-18	3	-1	10	3	4	1	2
27	CCC12CC3CC(C1)CC(C(=O)O)(C3)C2	-1	15	0	10	5	8	-3	1
28	O=C(Nc1nnc(SCc2ccc(Cl)cc2)s1)C1CCCO1 (configuration not stated)	0	-7	-1	3	4	-7	4	4
29	CC(=O)Nc1ccc(OS(=O)(=O)c2ccc(Cl)cc2)cc1	4	-4	-5	5	-6	-7	0	-1
30	CC(NC(=O)C1CCC1)c1ccc(Cl)cc1 (configuration not stated)	0	14	0	6	-4	2	3	5
31	O=C(NCCCc1ccccc1)C1CCC(=O)N(Cc2ccc(Cl)cc2)C1 (configuration not stated)	2	-22	0	12	-5	17	6	4
32	O=C(O)c1ccc(CSC2CCCCC2)cc1	4	-10	6	10	-5	-12	7	7
33	CC1Sc2ccc(S(=O)(=O)NCCc3ccc(Cl)cc3)cc2NC1=O (configuration not stated)	-32	-9	0	6	-3	1	3	15
34	Cc1ccc(SCCNS(=O)(=O)c2ccc3c(c2)OCCO3)cc1	-39	-8	-1	1	6	-2	2	9
35	O=C(/C=C/c1ccco1)NCC1(c2ccccc2)CCCC1	6	-16	1	19	2	7	2	16
36	O=C(Nc1cccnc1)c1sc(Nc2ccccc2)nc1-c1ccccc1	13	3	3	9	3	89*	5	7
37	Cc1ccccc1OCCC(=O)OCC(=O)N1CCN(S(=O)(=O)c2ccc(Cl)cc2)CC1	14	7	0	10	7	-2	6	21
38	CCCNC(=O)c1ccc(Cl)cc1Cl	4	16	-1	4	4	10	-2	0
39	O=C(COc1ccccc1)NS(=O)(=O)c1ccc(Cl)cc1	8	-7	5	-1	-1	1	5	-3
40	CN(CC(=O)NCc1ccc(Cl)cc1)S(=O)(=O)c1cccc2nsnc12	-7	18	-7	-5	-9	14	-6	-4
41	C=C(C)CNC(=O)CCc1nnc(C2(c3ccc(Cl)cc3)CCC2)o1	3	6	-1	4	-8	-5	-6	0
42	CC1(C)C(=O)Nc2ccccc2N1C(=O)COC(=O)CCSc1ccccc1	-18	19	2	-5	-5	15	-3	11
43	Cc1ccc(NC(=O)c2ccccc2)s1	7	-2	-1	2	7	5	1	2
44	Cc1ccc(S(=O)(=O)N2CCN(C(C)C(=O)N3CCCc4ccccc43)CC2)cc1 (configuration not stated)	17	6	3	5	7	2	6	3
45	O=C(CSc1nnc(SCc2ccc(Cl)cc2)s1)N/N=C/c1ccc(C(=O)O)cc1	-53	8	-7	0	-1	5	16	-7
46	CC1CCN(S(=O)(=O)c2ccc(Cl)cc2)CC1	-2	7	-1	9	-5	4	-1	6
47	CCOC(=O)Cn1c(C)c(C#N)c2ccccc21	-2	-11	-4	7	-3	1	-2	-9
48	O=C(NCCc1ccccc1)Nc1ccc(Cl)cc1	5	-28	4	-4	3	0	14	-1
49	COc1cc(C(C)=O)ccc1OCC(=O)N1CCc2ccccc2C1	2	-2	0	5	-9	5	6	1
50	COc1ccc(NC(=O)CSCC(=O)N2CCN(c3cccc(C(F)(F)F)c3)CC2)cc1	27	5	5	3	1	nt	8	8
51	CN(C)S(=O)(=O)N(CC(=O)NCCSCc1ccc(Cl)cc1)c1ccccc1	15	-10	-5	5	-3	3	-4	13
52	N#CCSc1n[nH]c2nc3c(c(=O)n12)C1(CCCC1)Cc1ccccc1-3	22	1	0	6	21	-3	10	16
53	COc1ccc(Cc2nnc(NC(=O)c3cccs3)s2)cc1	19	-14	0	5	4	-4	1	1
54	O=C(NCC1(c2ccccc2)CCCC1)c1ccc(Br)cc1	-5	7	1	-7	2	3	-4	11
55	O=C(COC(=O)C1(c2ccc(F)cc2)CCCC1)N1CCNC1=O	7	-11	-1	0	2	nt	6	0
56	CC(=O)c1ccn(S(=O)(=O)c2ccc(Cl)cc2)c1	-5	9	0	5	4	0	-7	9
57	Cc1csc(SCC(=O)N2CCN(S(=O)(=O)c3ccc(Cl)cc3)CC2)n1	0	11	0	-2	-3	18	-1	3
58	CC(C)C[C@H](NC(=O)NCc1ccc(Cl)cc1)C(=O)O	3	-5	0	0	2	12	-1	2
59	O=C(COc1ccc(Cl)cc1)Nc1cccc(S(=O)(=O)NCc2ccco2)c1	-15	10	-7	11	-2	nt	-3	11
60	O=S(=O)(NCCc1ccc(F)cc1)c1ccc(F)cc1Br	nt	nt	nt	4	4	nt	nt	2

Brought forward from above: 2 compounds; new compounds follow.
item	Molecule	PREPL inh	ZTA DNA inh	LYPLA1 inh	PAFAH1B3 inh	PAFAH2 FP inh	EBNA-1 inh	LYPLA2 inh	pPAFAH inh
59	O=C(COc1ccc(Cl)cc1)Nc1cccc(S(=O)(=O)NCc2ccco2)c1	-15	10	-7	11	-2	nt	-3	11
60	O=S(=O)(NCCc1ccc(F)cc1)c1ccc(F)cc1Br	nt	nt	nt	4	4	nt	nt	2
61	Cc1ccc(SCC(=O)Nc2ccc(S(=O)(=O)Nc3nccs3)cc2)cc1	8	9	1	0	3	9	-3	9
62	Cc1ccc(NC(=O)CSc2ccc(Br)cc2)cc1S(=O)(=O)N1CCOCC1	10	-5	-7	4	-3	8	-15	13
63	O=C(O)c1cccc(S(=O)(=O)N2CCC(Cc3ccccc3)CC2)c1	0	9	2	5	-3	7	-3	3
64	O=C(O)CC(NC(=O)C12CC3CC(CC(C3)C1)C2)c1cccc(Cl)c1 (configuration not stated)	3	4	-1	6	3	13	9	4
65	CCOC(=O)Cn1c(C)nc2ccccc21	-10	-3	0	-1	1	-12	4	3
66	N=C1SCC(=O)N1c1ncc(Cc2ccc(F)cc2)s1	18	5	1	12	-3	8	1	10
67	O=C(O)C(Cc1c[nH]c2ccccc12)NS(=O)(=O)c1ccc2ccccc2c1 (configuration not stated)	-2	5	-1	-3	-5	2	0	7
68	CC(=O)C1=C(O)C(=O)N(Cc2ccccc2)C1c1ccc(Br)cc1 (configuration not stated)	5	2	-1	-2	7	4	2	3
69	CCN(C1CCCCC1)S(=O)(=O)c1ccc(C(=O)O)cc1	-2	-3	0	5	5	-7	2	1
70	CCN(C(=O)c1cc2c(=O)n3ccccc3nc2n1CCCOC)C1CCCCC1	19	-11	-1	6	8	-10	-6	0
71	COc1ccc(CC(=O)N2CCc3cc(OC)c(OC)cc3C2)cc1	0	-12	0	8	-6	-3	3	3
72	O=[N+]([O-])CC(c1ccc(F)cc1)c1c[nH]c2ccccc12 (configuration not stated)	nt	nt	nt	9	1	nt	nt	nt

Of the compounds above, 8 have an aryl methoxy group.
item	Molecule	PREPL inh	ZTA DNA inh	LYPLA1 inh	PAFAH1B3 inh	PAFAH2 FP inh	EBNA-1 inh	LYPLA2 inh	pPAFAH inh
6	COc1ccc(S(=O)(=O)Nc2ccc(S(=O)(=O)Nc3nccs3)cc2)cc1	16	-11	-2	2	-7	5	3	0
9	COc1ccc(COc2ccc(C3C(S(=O)(=O)c4ccccc4)CON3C)cc2OC)cc1 (configuration not stated)	18	13	0	9	2	-5	4	3
18	COc1ccc(Nc2nc(-c3ccc(OC)cc3)c(CCC(=O)O)s2)cc1	3	-4	0	0	5	5	-3	9
22	COc1cc(C(=O)NCC2(c3ccccc3)CCCC2)cc(OC)c1OC	-17	-14	-2	10	5	2	4	4
49	COc1cc(C(C)=O)ccc1OCC(=O)N1CCc2ccccc2C1	2	-2	0	5	-9	5	6	1
50	COc1ccc(NC(=O)CSCC(=O)N2CCN(c3cccc(C(F)(F)F)c3)CC2)cc1	27	5	5	3	1	nt	8	8
53	COc1ccc(Cc2nnc(NC(=O)c3cccs3)s2)cc1	19	-14	0	5	4	-4	1	1
71	COc1ccc(CC(=O)N2CCc3cc(OC)c(OC)cc3C2)cc1	0	-12	0	8	-6	-3	3	3

Next section
item	Molecule	PREPL inh	ZTA DNA inh	LYPLA1 inh	PAFAH1B3 inh	PAFAH2 FP inh	EBNA-1 inh	LYPLA2 inh	pPAFAH inh
73	O=C(Nc1nnc(COc2ccc(Br)cc2)s1)c1ccco1	10	-11	-1	6	-4	-7	-6	5
74	CC(NC(=O)C1CCN(C(=O)Nc2ccccc2)CC1)c1ccc(Cl)cc1 (configuration not stated)	-4	6	0	1	0	nt	2	1
75	Cc1ccc(/C=C/C(=O)N2CCCN(C(=O)/C=C/c3ccc(C)cc3)CC2)cc1	-11	-10	0	10	-3	-3	11	-4
76	COc1cc(OC)c(S(=O)(=O)Nc2ccccc2N2CCCCC2)cc1NC(C)=O	7	-17	3	1	-8	-4	5	1

Bioassay records as filed in PubChem.
